MLL AF4-AF9 inh: MLL-AF4/AF9 protein interaction inhibition. P42568. AlphaScreen, biotin-AF4 peptide binding to FLAG-AF9. inhibition, % at 10 µM. actives 0.47% (n = 350,000);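 active = every replicate reaching a set inhibition limit, whatever the replicate mean, cut at about 25% in these data; inconclusive = mean inhibition reaches that limit but some replicates miss it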;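 also: 0% = plate neutral control median and 100% = total signal loss; the record names both 10 and 1 µM as test concentration; the first replicate is given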
HNF4A DNA FP: change in binding of human HNF4 alpha to DNA. P41235. HNF4a-FITC DNA binding, fluorescence polarization, 1 h. activity change, % at 10 µM. actives 0.3% (n = 360,000). AID 1224865; in the data active = activity change above about 30%, passing the limit was not always enough;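 also: controls were the assay level and a saturating level of protein; the project sought stronger binding though the title names inhibitors; some compounds called inactive have numbers as strong as hits; positive values seem to mean higher polarization but the record does not say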
Target sequence (P41235 whole entry, looked up): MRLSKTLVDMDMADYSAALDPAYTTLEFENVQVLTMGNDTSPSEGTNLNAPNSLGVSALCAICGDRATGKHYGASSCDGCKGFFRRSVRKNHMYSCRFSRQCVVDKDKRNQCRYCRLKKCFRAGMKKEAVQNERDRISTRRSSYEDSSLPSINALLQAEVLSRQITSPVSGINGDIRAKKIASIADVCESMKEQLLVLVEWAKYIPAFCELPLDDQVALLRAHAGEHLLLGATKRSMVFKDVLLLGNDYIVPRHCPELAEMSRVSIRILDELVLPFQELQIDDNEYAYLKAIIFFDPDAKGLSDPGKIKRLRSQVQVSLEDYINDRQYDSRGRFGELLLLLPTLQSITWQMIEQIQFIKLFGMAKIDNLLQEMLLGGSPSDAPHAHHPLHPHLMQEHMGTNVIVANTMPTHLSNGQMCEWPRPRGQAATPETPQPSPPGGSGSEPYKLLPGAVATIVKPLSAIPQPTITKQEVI
Vif TR-FRET: inhibitors of Vif binding to APOBEC3G peptide, primary screen, biochemical, TR-FRET, GST-Vif 1-94, biotin-A3G peptide, dose response retest (AID 1117319). TR-FRET GST-Vif / biotin-A3G peptide binding; higher % means a stronger effect; test concentration not given here; strong numbers were not always called active. one-dose inhibition, %; IC50 in µM for titrated hits. actives 0.57% (n = 260,000);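 active = above the screen mean plus three standard deviations and confirmed in dose response; inconclusive = results disagree or hit not tested in dose response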;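 also: Vif residues 1-94 fused to GST binding biotinylated APOBEC3G peptide 110-148; 0% = full assay without inhibitor and 100% = GST in place of GST-Vif; retest series ran down from 100 µM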
Ecoli rRNA inh: selective bacterial rRNA inhibition in E. coli. GFP signal change (wild-type ribosome), % (test concentration not listed). actives 1.6% (n = 350,000). AID 720706. E. coli WT GFP vs humanized-ribosome RFP mutants, fluorescence, 24 h; stronger effect = lower value; DMSO median 0, no signal -100;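 active = significant combined selectivity score with lowered wild-type GFP, culture density cut under 30%, mutant RFP and density less affected; inactive = any of these conditions unmet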; also: one replicate is shown; some compounds called inactive have numbers as strong as hits
FGF22 binding: FGF22 (human) thermal shift binding; recombinant FGF22 thermal shift, SYPRO orange fluorescence; percent of sucrose octasulfate shift, DMSO zero; actives 1.5% (n = 340,000); Q9HCT0; calls only at 9.99 µM;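 active = melting point raised past a set limit in the mean and every replicate; inconclusive = no clear call; three in four hits are not shown here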
Target sequence (Q9HCT0 whole entry, looked up): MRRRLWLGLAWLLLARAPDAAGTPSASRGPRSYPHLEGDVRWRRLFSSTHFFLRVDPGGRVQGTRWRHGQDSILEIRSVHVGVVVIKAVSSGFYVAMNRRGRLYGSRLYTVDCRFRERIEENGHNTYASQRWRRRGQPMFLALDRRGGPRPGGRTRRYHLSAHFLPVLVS
E coli growth: E. coli growth inhibition; Escherichia coli growth, OD600, 23 h; stronger effect = lower value; OD600 absorbance (test concentration not listed); actives 0.21% (n = 330,000); AID 1053175;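 active = OD600 absorbance below the run mean of sample wells minus 3.6 SD, in any replicate, cut at about 0.56 in these data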;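 also: stock transfer was 300 nL into about 60 µL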
ALR H2O2 inh: blocks human ALR sulfhydryl oxidase activity | actives 3.8% (n = 290,000) | purified ALR, DTT oxidation, H2O2 HRP-luminol luminescence | inhibition, % (concentration not given with the values);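 active = mean and each replicate at 75% or more; inconclusive = only one of the two met; inactive = neither met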;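 also: stock transfer was 7.5 nL into about 7.5 µL; 0% = neutral wells and 100% = wells with inactivated enzyme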
Target sequence (P55789 whole entry, looked up): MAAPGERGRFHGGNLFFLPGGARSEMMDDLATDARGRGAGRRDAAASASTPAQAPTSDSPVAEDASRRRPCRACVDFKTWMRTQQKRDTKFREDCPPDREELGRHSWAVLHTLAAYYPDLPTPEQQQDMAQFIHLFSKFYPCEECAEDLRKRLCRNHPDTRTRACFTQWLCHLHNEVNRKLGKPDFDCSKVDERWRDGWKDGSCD
Ecoli rRNA inh OD600: also measured in Ecoli rRNA inh; calls as there; OD600 change, %; measured here: OD600 growth;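 optical density of the mix in the first replicate; 0 = DMSO median and -100 = no signal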
Ecoli rRNA inh RFP: second read-out of Ecoli rRNA inh, no call of its own (marks repeat the call); RFP signal change, %; measured here: RFP humanized mutant strains;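 first replicate; 0 = DMSO median and -100 = no signal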
Active calls of the source: *; i = inactive; ? = inconclusive; · = no result given; + = active, no number; & = joins results of further samples. Not all compounds are listed; rates above refer to the full screens.

SMILES	MLL AF4-AF9 inh	HNF4A DNA FP	Vif TR-FRET	Ecoli rRNA inh	Ecoli rRNA inh OD600	Ecoli rRNA inh RFP	FGF22 binding	E coli growth	ALR H2O2 inh
Cc1ccc2c(c1)C1CN(C)CCC1N2C(=O)c1ccccc1NS(=O)(=O)c1ccc(F)cc1 (configuration not stated)	3.7	0.8	14%	·	·	·	i	0.72	4
COc1ccc(NC(=O)COC(=O)c2c(F)cccc2Cl)cc1OC	0.5	·	·	-13	-13	-0.6	i	0.71	-13
Cc1ccc(C(=O)N/N=C/c2ccc([N+](=O)[O-])s2)cc1	·	2.5	29%	·	·	·	·	·	-10
COc1ccc(NS(=O)(=O)c2cccc(C(=O)N/N=C(\C)c3cccnc3)c2)cc1	-6.5	-1.8	-2%	1	2	-2.3	i	·	·
CCOC(=O)/C=c1/s/c(=C/c2ccccc2OC)c(=O)n1CC(=O)N1CCOCC1	11	3.2	-3%	·	·	·	i	0.66	·
Cc1ccc(C)c(NC(=O)CN(C)C(=O)c2ccc(-n3cncn3)c([N+](=O)[O-])c2)c1	0.7	-2.8	3%	14	7	-1.0	i	0.7	-5
CC(C)(C)c1ccc(C(=O)NCC(=O)O)cc1	-0.8	0.6	·	18	6	0.0	i	0.66	-3
Cc1cccc(S(=O)(=O)N2CCCCN3[C@H](CO)[C@H](c4ccc(C#C[C@H](C)O)cc4)[C@@H]3C2)c1	0.6	·	·	-10	-15	8.9	i	·	·
O=C(CSc1nccn1-c1ncc(C(F)(F)F)cc1Cl)c1ccc(Br)cc1	·	-0.5	5%	·	·	·	·	·	5
COc1ccccc1NC(=O)N[C@@H]1CC[C@@H](CCNS(=O)(=O)c2ccccc2)O[C@@H]1CO	-0.7	·	·	2	4	-1.5	i	·	·
O=C(NC1CCCCC1)C(c1cccnc1)N(C(=O)CCl)c1cccc(Cl)c1 (configuration not stated)	39*	3.8	-7%	10	4	18	i	0.71	2
CCN1CCN(C(c2ccc(OC)cc2)C(O)C(=O)c2c[nH]c3ccccc23)CC1 (configuration not stated)	·	-2.3	1%	9	11	0.0	·	0.68	-8
CCOCCCNC(=O)/C=C1\Sc2ccccc2N(Cc2ccccc2F)C1=O	-2.6	4.2	-8%	-17*	-8.0*	3.8*	i	0.71	9
Cc1cc(SCC(=O)N/N=C/c2ccc(O)cc2O)c(C)cc1Br	·	-4.2	32%	-37	-57	-14	·	·	43
Cc1ccc(NC(=O)C2CC(=O)NC(N3CCCCC3)=N2)cc1Cl (configuration not stated)	·	-0.3	?	·	·	·	·	0.72	·
CC(=O)N(C)C[C@H]1Oc2ncc(C#CC(C)(C)O)cc2C(=O)N([C@@H](C)CO)C[C@@H]1C	-15	·	·	6	22	0.0	i	·	·
O=C(Nc1ccc(OC(F)F)c(Cl)c1)c1ccccn1	-3.4	9.1	·	4	9	-1.9	i	0.64	0
CCC(CO)Oc1cc(NC(=O)c2cccc(OC)c2)c2ncn(C(C)C)c2c1 (configuration not stated)	-9.4	-2.3	·	-17	6	20	i	0.73	14
COC(=O)[C@H](CCSC)NC(=O)Nc1ccc(OC)c(Cl)c1	·	1.1	-6%	·	·	·	·	0.75	9
CN(C(=O)CSc1nnc(-c2ccco2)o1)C1CCCCC1	·	-0.5	-2%	·	·	·	·	0.76	-7
COCC(=O)N(C)C[C@H]1Oc2ncc(Br)cc2C(=O)N([C@@H](C)CO)C[C@H]1C	1.0&-2.8&-9.7	1.3	·	-1&3	10&5	-4.0&-1.7	i	·	·
O=C(NCC1CCCO1)c1nn2c(C(F)(F)F)cc(-c3cc(Br)cs3)nc2c1Br (configuration not stated)	2.4	20	·	4	1	-0.4	i	0.7	-4
Cc1cc2c(c(=O)o1)[C@@]1(C(=O)N(C)c3cc(Br)ccc31)C1=C(CCCC1=O)O2	-4.0	·	·	5	4	-0.3	i	·	·
Cn1c(=O)c2c(SCCN3CCOCC3)nc(C3CCCC3)nc2n(C)c1=O	0.2	-0.6	-1%	1	5	1.4	i	0.68	-12
COc1ccc(N(CC(=O)NCc2ccco2)S(C)(=O)=O)cc1OC	·	3.8	0%	·	·	·	·	0.73	-1
CCCCn1c(N)c(N(CC(C)C)C(=O)c2cc(C)nc3ccccc23)c(=O)[nH]c1=O	-6.4	0.7	1%	5	10	1.9	i	0.65	20
Cc1cccc(N(C(=O)c2snc(C(N)=O)c2N)C(C(=O)NCC2CCCO2)c2ccc3ncccc3c2)c1 (configuration not stated)	8.0	1.7	·	9	0	3.6	i	0.69	-11
CC1CCN(C(=O)C2CCN(S(=O)(=O)c3ccc(-n4cnnn4)cc3)CC2)CC1	8.0	3.6	·	7	5	-1.8	i	0.68	·
CC1(C)CC(=O)C(C=Nc2ccc3[nH]ncc3c2)=C(O)C1	·	-1.9	6%	·	·	·	·	0.71	8
CC1(Oc2cccc(F)c2)CCN(Cc2ccc(-c3ccccn3)cc2)C1 (configuration not stated)	2.2	3.8	·	-4	1	2.7	i	·	·
S=c1[nH]nc(Cc2c[nH]c3ccccc23)o1	·	2.9	3%	·	·	·	·	0.62	54
COC1(c2cc(-c3ccccc3)nc(N)n2)CCCCC1	·	1.6	-1%	·	·	·	·	0.72	6
CN(C)C(=O)c1ccc(-c2ccc3c(c2)[C@@H]2[C@@H](CCN2Cc2ccc4c(c2)OCO4)[C@@H](CO)N3)cc1	-0.6	·	·	1	6	-1.0	i	·	·
CCCCCn1c(CN2CCN(C(=O)c3ccco3)CC2)nc2c1c(=O)n(C)c(=O)n2C	-0.1	3.7	·	0	-11	-6.4	i	0.76	-5
CCOC(=O)C1=C(NC(=S)NC(=O)c2ccccc2)c2ccccc2CC1C(C)C (configuration not stated)	·	4.0	-3%&-4%	·	·	·	·	0.73	-17
COc1ccc(/C=N/NC(=O)c2ccc(NC(=O)c3ccccc3Br)cc2)cc1	·	-3.6	9%	·	·	·	·	·	-4
CC(C)(O)CN(C(=O)c1ccc([N+](=O)[O-])cc1)C1CCCC1	-0.8	3.4	3%	-5	15	-3.2	i	·	·
C#CCNC(=O)C1=C[C@H](c2coc3ccccc3c2=O)[C@@H](CCCO)[C@H](OCC)O1	-12	-7.3	-5%	4	5	-5.0	i	·	4
C[C@@H]1CN([C@@H](C)CO)S(=O)(=O)c2ccc(C#CC3CC3)cc2O[C@H]1CN(C)C(=O)c1cccc(F)c1	3.0	·	·	-22	-56	10	i	·	·
C=CCNC(=O)NC(=O)Cn1c(=O)c2c(ncn2CC)n(Cc2ccccc2)c1=O	0.8	-0.5	4%	7	6	1.3	i	0.63	-11
COc1ccccc1OCCOc1ccc(/C=C2\C(=N)N3N=C(S(C)(=O)=O)SC3=NC2=O)cc1	-12	-6.3	5%	-1	-24	0.9	+	0.66	·
Cc1ccc(S(=O)(=O)N(C)C[C@H]2Oc3c(NS(=O)(=O)c4ccc(Cl)cc4)cccc3C(=O)N([C@H](C)CO)C[C@@H]2C)cc1	-0.5	·	·	4	7	0.5	i	·	·
CC(=O)NC1C(Oc2ccc(C)cc2)OC2COC(c3ccco3)OC2C1O (configuration not stated)	-2.8	4.0	·	-24	-34	-14	i	0.68	-1
Cc1nc2ccccc2c(=O)n1CCCN1CCOCC1	-0.1	-0.5	11%	14	6	2.0	i	0.63	-14
C[C@H]1CN([C@@H](C)CO)C(=O)Cc2cc(NC(=O)Nc3ccccc3)ccc2O[C@@H]1CN(C)C(=O)Nc1cccc2ccccc12	-3.0	·	·	0	4	1.2	i	·	·
C[C@H](CO)N1C[C@H](C)[C@H](CN(C)C)OCCCC[C@H](C)Oc2ccc(NC(=O)CCC(F)(F)F)cc2C1=O	-2.5	·	·	-2	8	-4.5	i	·	·
COCc1cc(=O)[nH]c(Nc2nc3ccccc3o2)n1	-1.7	-1.4	31%	·	·	·	·	0.73	-8
O=C(NCCO)/C(=C/c1ccc(Br)cc1)NC(=O)c1cccs1	1.6	-0.5	11%	0	4	-4.1	i	0.67	-8

Not a retest: two of the compounds above.
SMILES	MLL AF4-AF9 inh	HNF4A DNA FP	Vif TR-FRET	Ecoli rRNA inh	Ecoli rRNA inh OD600	Ecoli rRNA inh RFP	FGF22 binding	E coli growth	ALR H2O2 inh
COCc1cc(=O)[nH]c(Nc2nc3ccccc3o2)n1	-1.7	-1.4	31%	·	·	·	·	0.73	-8
O=C(NCCO)/C(=C/c1ccc(Br)cc1)NC(=O)c1cccs1	1.6	-0.5	11%	0	4	-4.1	i	0.67	-8

Continuation:
SMILES	MLL AF4-AF9 inh	HNF4A DNA FP	Vif TR-FRET	Ecoli rRNA inh	Ecoli rRNA inh OD600	Ecoli rRNA inh RFP	FGF22 binding	E coli growth	ALR H2O2 inh
COc1ccc(-c2cc(C(=O)OCc3ccccn3)c3ccccc3n2)cc1	1.3	-1.3	·	-34*	-13*	2.4*	i	0.65	6
CCCOc1ccc(C(F)(F)F)cc1NC(=O)CCc1c(C)noc1C	2.9	-0.9	-2%	-2	15	-3.0	i	0.66	·
CC(=O)Nc1ccc(-c2ccnc(-c3ccc(NC(C)=O)cc3)n2)cc1	-4.5	-2.4	·	5	6	9.2	i	0.73	·
COc1ccc(Br)cc1/C=N/Nc1ccc(S(=O)(=O)Nc2ccccc2C(=O)O)cc1[N+](=O)[O-]	-13	-43	·	-25*	15*	-1.9*	i	·	·
COc1ccc(NC(=O)Nc2ccc3c(c2)C(=O)N([C@@H](C)CO)C[C@H](C)[C@@H](CN(C)C(=O)Nc2ccc(F)cc2)O3)cc1	0.5	·	·	4	-3	-2.0	i	·	·
CC(C)C1N=C2c3ccccc3N=C(SCC(=O)NCCc3ccc(S(N)(=O)=O)cc3)N2C1=O (configuration not stated)	·	3.7	-9%	·	·	·	·	0.68	-8
Cc1ccc(CNC(=O)C(C)OC(=O)c2ccco2)cc1 (configuration not stated)	·	4.9	-4%	·	·	·	·	0.68	-18
COc1cc(C2C(C(=O)c3ccc(C)o3)=C(O)C(=O)N2c2cc(C)on2)cc(OC)c1OC (configuration not stated)	-19	-3.7	·	7	9	2.6	·	0.67	-3
Cc1ccc(SCC(=O)NCc2ccc(F)cc2)cc1	-2.0	-2.3	13%	·	·	·	i	0.7	-6
CC1=C(C(=O)Nc2ccc(Cl)cc2)C(c2ccco2)NC(=O)N1 (configuration not stated)	·	-1.3	12%	·	·	·	·	0.72	-8
Cc1cccc(NC(=O)c2nc(S(=O)(=O)Cc3ccccc3)ncc2Cl)c1	-9.5	0.3	·	-15*	11*	-6.1*	i	·	5
O=C(c1ccco1)N1CCN(CC(O)COc2ccc3oc4ccccc4c3c2)CC1 (configuration not stated)	·	0.6	0%	·	·	·	·	0.68	10
CCOCCCNC(=O)C1CCN(S(=O)(=O)CC)CC1	·	-2.1	36%	·	·	·	·	0.67	1
C=CCn1cccc(C(=O)Nc2cc(OC)cc(OC)c2)c1=O	-2.6	3.1	-5%	-6	-14	-2.0	i	0.71	-6
O=c1cccc(-c2ccc(Br)cc2)o1	·	1.4	-7%	·	·	·	·	0.79	-7
Cc1ccc(OCCN2CCN(c3nc(NCc4ccco4)c4ccccc4n3)CC2)cc1	·	1.9	4%	·	·	·	·	0.62	-35
Cc1sc(NC(=O)Cn2nc(C(F)(F)F)cc2C)c(C(=O)OC(C)C)c1C	·	-3.1	23%	·	·	·	·	0.79	-3
CNC[C@@H]1OCCCC[C@H](C)Oc2ccc(NS(=O)(=O)c3ccccc3)cc2C(=O)N([C@H](C)CO)C[C@@H]1C	-0.1	·	·	-1	7	-3.4	i	·	·
COc1cccc(C(=O)Nc2ccc(N3CCN(Cc4ccccc4)CC3)cc2)c1	·	-0.2	-2%	·	·	·	·	0.71	-1
Cn1c(C(=O)NC2CCCCC2)cc2c(=O)n(C)c3ccccc3c21	0.3	2.0	-27%	·	·	·	i	0.77	-2
